KSHV LANA nucl: LANA-nucleosome interaction inhibition; FITC-LANA1-23 / chicken nucleosome fluorescence polarization; hits give low values; z-score (no concentration beside the values); hit rate 0.3% among 51,000;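 active = both repeat wells score below -2 in polarization z-score versus plate sample wells, excluding overly bright wells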;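 also: 100 nL library stock added to about 30 µL; numbers are from one replicate; some results filed as inactive read as strong as hits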
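System – purified chicken nucleosomes with FITC-labelled LANA N-terminal peptide (1-23) · Amount – 240 nM purified chicken nucleosomes (480 nM peptide binding sites), final · Also added – 50 nM FITC-LANA1-23 probe · Medium – TEN-BT buffer, pH 7.5 · Incubation – compound with peptide–nucleosome mix 10–45 min at room temperature · Detection – fluorescence polarization, ex 480 nm, em 535 nm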
BasE inh: BasE siderophore biosynthesis inhibition; purified BasE, fluorescence polarization binding displacement; hit rate 0.1% among 84,000; inhibition, % (concentration not given with the values); AID 485350;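 active = both replicates above 25% with normal brightness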;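 also: 0% = negative plate control signal and 100% = positive plate control signal; stock transfer was 100 nL into about 30 µL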
* = called active by the depositor.

For O=C(CCCCC(=O)Nc1c(I)cc(I)c(C(=O)O)c1I)Nc1c(I)cc(I)c(C(=O)O)c1I the results were KSHV LANA nucl -0.247 and BasE inh -0.2.
O=C(NN1CC(=O)N(C2CCCC2)C1=O)c1cc2c(s1)CCCC2 was read as KSHV LANA nucl 0.0545 and BasE inh 3.0.
`COCC(=O)Nc1ccc(Nc2ccccc2)cc1` gave KSHV LANA nucl 0.0345 and BasE inh 0.6.
For N#CC(c1ccccc1)c1ccccc1C(=O)c1ccccc1 (stereo not given) the results were KSHV LANA nucl 0.831.
For CSc1nc(NS(=O)(=O)c2cc(C(F)(F)F)cc(C(F)(F)F)c2)nn1C the results were BasE inh -1.4.
For COc1ccc(/C=C(/NC(=O)c2ccco2)C(=O)N2CCCC2=O)cc1 the results were BasE inh 1.0.
For CC1CCN(CC(=O)c2cccs2)CC1 the results were BasE inh 3.3.
For CNC(=O)COc1ccc(S(=O)(=O)N2CCOCC2)cc1Cl the results were KSHV LANA nucl 0.0045 and BasE inh 1.9.
For CCN(CC)S(=O)(=O)c1ccc(Nc2ccc(-c3ccc4c(c3)OCCO4)nn2)cc1 the results were KSHV LANA nucl -0.273 and BasE inh 2.8.
For Cc1c(C)n(C(=O)CN2CCC(C(N)=O)CC2)c2ccccc12 the results were KSHV LANA nucl -0.0565 and BasE inh -3.3.
`COCC(C)NCc1cc(=O)oc2cc(C)c(C(C)C)cc12` (stereo not given) gave BasE inh -0.5.
For O=C(NCc1ccccn1)c1ccc(-c2nc3ccccc3s2)s1 the results were BasE inh 3.3.
For O=C(CCC(=O)N1CCN(c2ccc(Cl)c(Cl)c2)CC1)c1ccccc1 the results were KSHV LANA nucl 0.0515 and BasE inh -0.2.
For Cc1oc(-c2ccc(Cl)cc2)nc1CN1CCC(C(=O)NC2CCCCC2)CC1 the results were KSHV LANA nucl 0.0865 and BasE inh 1.3.
For CNS(=O)(=O)c1cc(-c2nn(C)c(=O)c3ccccc23)ccc1C the results were KSHV LANA nucl 0.281 and BasE inh -1.0.
`CCSC1=N/C(=C\c2cccc(OC)c2)C(=O)S1` gave KSHV LANA nucl -0.336 and BasE inh 3.0.
Nc1cccc2c1C(=O)N(CCO)C2=O was read as KSHV LANA nucl -2.27 and BasE inh 15.7.
Cc1nn(C)c(C)c1NC(=S)NC1CCCC1 was read as KSHV LANA nucl -1.48 and BasE inh 0.9.
`Cc1ccc(Cn2c(SCC(=O)N(C)C)nc3ccccc3c2=O)cc1` gave BasE inh 1.9.
Screening c1ccc(N=C2NN=C(c3ccccc3)CS2)cc1 returned BasE inh -0.1.
For COc1ccccc1/C=N/NC=O the results were BasE inh 0.6.
Screening CC1=CC(=O)C(C(=O)/C=C/c2ccc(N(C)C)cc2)C(=O)O1 (stereo not given) returned BasE inh -12.6.
CCOC(=O)C1=C(C)SC2=NS(=O)(=O)CCN21 was read as BasE inh 0.9.
Screening Cc1c2cnn(-c3ccccc3)c(=O)c2c(C)n1CC(=O)N1CCCCC1 returned KSHV LANA nucl 0.942 and BasE inh -3.3.
CC(Nc1ccccc1CO)C(=O)N1CCOCC1 (stereo not given) was read as BasE inh 0.0.
COc1ccc(C2=NN(C(=O)COc3ccc(NC(=O)c4ccco4)cc3)C(c3ccco3)C2)cc1 (stereo not given) was read as BasE inh 0.0.
For N#Cc1c(F)cccc1NCc1cccs1 the results were BasE inh 0.1.
Screening CCSc1nc2c(cnn2-c2ccc(Cl)cc2)c(=O)[nH]1 returned KSHV LANA nucl -0.407 and BasE inh 1.0.
For CN1CCN(P(=O)(c2ccccc2)c2nc3ccccc3s2)CC1 (stereo not given) the results were BasE inh -0.6.
For CCn1cc(-c2csc(N)n2)c(C)n1 the results were KSHV LANA nucl 0.94 and BasE inh 0.8.
`CCOC(=O)c1cnc2c(CC)cccc2c1NCCO` gave KSHV LANA nucl 0.954 and BasE inh 0.9.
O=C(CSc1nc2ccccc2c(=O)[nH]1)c1ccc2c(c1)OCCO2 was read as BasE inh 2.2.
For Cc1ccc(CNC(=O)CCc2c(C)nn3cnnc3c2C)cc1 the results were KSHV LANA nucl 0.136 and BasE inh -0.5.
For CCSc1ncc(Cl)c(C(=O)N2CCN(c3cccc(Cl)c3)CC2)n1 the results were KSHV LANA nucl 0.321 and BasE inh -0.4.
Screening Nc1ccc(C(=O)O)cn1 returned BasE inh -0.8.
Screening CC1(C)NNC(=S)NC1=O returned BasE inh 1.1.
For Clc1ccccc1COc1ccccc1-c1nnco1 the results were BasE inh -1.2.
Screening CN(C)C1CCS(=O)(=O)C1 (stereo not given) returned KSHV LANA nucl -0.137 and BasE inh -2.9.
For CC1(C)O[C@@H]2C[C@H]3[C@@H]4C[C@H](F)C5=CC(=O)C=C[C@]5(C)[C@H]4[C@@H](O)C[C@]3(C)[C@]2(C(=O)CO)O1 the results were KSHV LANA nucl 1.94 and BasE inh -1.7.
`Cc1ccc2oc(=O)n(CC(=O)OC(C)C)c2c1` gave KSHV LANA nucl -1.41 and BasE inh -0.4.
Cc1cc(N2CCC(C(N)=O)CC2)nc(-c2ccccc2)n1 was read as KSHV LANA nucl -0.176 and BasE inh -2.3.
Screening CCn1c(SC/C(O)=C(\C(=O)OC)c2nc3ccccc3[nH]2)nnc1-c1ccccc1OC returned BasE inh -4.8.
`CCC(C)c1ccc(OCC(=O)Nc2ccc(NC(=O)c3ccco3)cc2)cc1` (stereo not given) gave KSHV LANA nucl 0.134 and BasE inh -1.0.
`c1ccc2cc(OCCN3CCOCC3)ccc2c1` gave BasE inh -3.2.
`N#Cc1ccc(OCC(F)(F)C(F)F)cc1C#N` gave KSHV LANA nucl 0.0085 and BasE inh 3.5.
COc1ccccc1C(=O)CSc1nnnn1-c1ccc(C)cc1C was read as BasE inh -0.2.
For CC(Sc1nnnn1C)C(=O)c1ccc(Cl)cc1 (stereo not given) the results were KSHV LANA nucl -0.854 and BasE inh 1.1.
C(=NN1CCN(c2ccccn2)CC1)c1cccc2ccccc12 was read as KSHV LANA nucl -0.444 and BasE inh 1.7.
Screening O=c1[nH]c(=O)n(C2OC(CO)C(O)C2O)cc1Br (stereo not given) returned BasE inh 4.1.
For COc1cccc2c1C(=O)c1c(O)c3c(c(O)c1C2=O)C[C@@](O)(C(=O)CO)C[C@@H]3O[C@H]1C[C@H](N)[C@@H](O)[C@H](C)O1 the results were KSHV LANA nucl -11.4.
COc1ccccc1CNC(=O)c1ccc2c(=O)n3c(nc2c1)CCCCC3 was read as KSHV LANA nucl 1.07 and BasE inh -7.4.
Screening Cc1ccc(-n2c(SC3CCOC3=O)nc3ccccc32)cc1 (stereo not given) returned BasE inh -1.4.
N#CCc1ccc(NC(=O)c2ccccc2C(=O)O)cc1 was read as KSHV LANA nucl 0.12 and BasE inh -2.2.
Screening CC1CCC2(CC1)NC(=S)N(C)N2 (stereo not given) returned KSHV LANA nucl 0.546 and BasE inh -0.4.
Screening COc1ccc(Cn2c(=O)c3cccnc3n(Cc3ccc(C)cc3)c2=O)cc1 returned KSHV LANA nucl -0.58 and BasE inh -0.2.
`O=C(CSc1nnc(-c2ccccc2)o1)c1ccc2c(c1)OCCO2` gave KSHV LANA nucl -0.772 and BasE inh 1.1.
Screening O=C(CSc1nnc2ccccn12)Nc1ccc(N2CCOCC2)cc1 returned BasE inh 1.7.
Screening CCN1CCc2c(OCC(=O)NC3CCCCC3)cccc2C1=O returned KSHV LANA nucl -1.42 and BasE inh -0.4.
`CCOc1ccc2[nH]c(=O)c(CN(CC3CCCO3)C(=O)N(CC)CC)cc2c1` (stereo not given) gave KSHV LANA nucl -0.661 and BasE inh 1.3.
`CN(c1ccccc1C(=O)NC(C)(C)C)S(C)(=O)=O` gave KSHV LANA nucl 0.17 and BasE inh -0.6.

Reprinted from the listing for reference:
Cc1cc(N2CCC(C(N)=O)CC2)nc(-c2ccccc2)n1 was read as KSHV LANA nucl -0.176 and BasE inh -2.3.
Screening CCn1c(SC/C(O)=C(\C(=O)OC)c2nc3ccccc3[nH]2)nnc1-c1ccccc1OC returned BasE inh -4.8.
`CCC(C)c1ccc(OCC(=O)Nc2ccc(NC(=O)c3ccco3)cc2)cc1` (stereo not given) gave KSHV LANA nucl 0.134 and BasE inh -1.0.
`c1ccc2cc(OCCN3CCOCC3)ccc2c1` gave BasE inh -3.2.
`N#Cc1ccc(OCC(F)(F)C(F)F)cc1C#N` gave KSHV LANA nucl 0.0085 and BasE inh 3.5.
COc1ccccc1C(=O)CSc1nnnn1-c1ccc(C)cc1C was read as BasE inh -0.2.
For CC(Sc1nnnn1C)C(=O)c1ccc(Cl)cc1 (stereo not given) the results were KSHV LANA nucl -0.854 and BasE inh 1.1.
C(=NN1CCN(c2ccccn2)CC1)c1cccc2ccccc12 was read as KSHV LANA nucl -0.444 and BasE inh 1.7.
Screening O=c1[nH]c(=O)n(C2OC(CO)C(O)C2O)cc1Br (stereo not given) returned BasE inh 4.1.
For COc1cccc2c1C(=O)c1c(O)c3c(c(O)c1C2=O)C[C@@](O)(C(=O)CO)C[C@@H]3O[C@H]1C[C@H](N)[C@@H](O)[C@H](C)O1 the results were KSHV LANA nucl -11.4.
COc1ccccc1CNC(=O)c1ccc2c(=O)n3c(nc2c1)CCCCC3 was read as KSHV LANA nucl 1.07 and BasE inh -7.4.
Screening Cc1ccc(-n2c(SC3CCOC3=O)nc3ccccc32)cc1 (stereo not given) returned BasE inh -1.4.

(more compounds)
CCn1c(C)c(CCC(=O)Nc2cccc(OC)c2)c(=O)n2nc(-c3ccccc3OC)cc12 was read as KSHV LANA nucl 0.784 and BasE inh 0.2.
Screening CC1CN(CN2C(=O)CCC2=O)CC(C)O1 (stereo not given) returned KSHV LANA nucl 0.548 and BasE inh 2.4.
Screening Cc1ccc2c(COC(=O)C3COc4ccccc4O3)cc(=O)oc2c1 (stereo not given) returned BasE inh -1.1.
Screening CC(C)COC(=O)Nc1ccccc1I returned KSHV LANA nucl 0.356 and BasE inh 1.2.
Cc1ccc(C23CC4CC(CC(CN)(C4)C2)C3)cc1C was read as BasE inh -6.1.
`O=C(C(Cc1ccccc1)n1cccc1)N1CCN(c2ccccc2)CC1` (stereo not given) gave KSHV LANA nucl 0.51 and BasE inh 0.1.
`O=C(CN1C(=O)c2ccccc2C1=O)OCC(=O)c1ccc[nH]1` gave BasE inh 8.3.
`C=CCNC(=O)Cn1nnc(-c2ccc(C)cc2)n1` gave BasE inh -3.7.
Screening Cc1ccnc2nc(C(=O)OCC(=O)NCc3cccc(Cl)c3)nn12 returned BasE inh 0.1.
O=C(Nc1ccn(Cc2ccccc2)n1)c1ccccc1 was read as KSHV LANA nucl -0.0235 and BasE inh -0.8.
`COc1ccc(C(=O)Oc2c(C)occc2=O)cc1` gave BasE inh 0.1.
For COc1ccc2c(c1)N(C[C@H](C)CN(C)C)c1ccccc1S2 the results were KSHV LANA nucl -0.845 and BasE inh -0.5.
`N#CCSc1nc2cc(C(F)(F)F)ccc2n1Cc1ccccc1` gave BasE inh 1.1.
Screening Cc1cc(C)c2nc(NC3=NCCCCC3)sc2c1 returned BasE inh 2.0.
`COCC(=O)Nc1ccccc1C(N)=O` gave KSHV LANA nucl 0.366 and BasE inh -1.2.
`COc1ccc(CN2CCCN(Cc3ccc(OC)cc3)C2c2ccc(F)cc2)cc1` gave KSHV LANA nucl -0.736.
For COC(=O)c1ccc(COC(=O)c2ccc(OC)c(OC)c2)cc1 the results were KSHV LANA nucl -2.09 and BasE inh 1.2.
`CC(C)(C)C(=S)Nc1cccc(Cl)c1` gave BasE inh -2.4.
`O=C1C=CC(=O)N1c1ccccc1F` gave KSHV LANA nucl -0.095 and BasE inh -0.1.
`Cc1cc(C(=O)Cn2cnnc2C#N)c(C)n1-c1ccc(OC(F)(F)F)cc1` gave BasE inh -1.3.
COc1ccccc1C(=O)Oc1nnc2c3ccccc3cnn12 was read as KSHV LANA nucl -0.268 and BasE inh -0.2.
Screening Cc1ccc(C)c(Cn2nnc3c2nc(C)n2c(=O)[nH]nc32)c1 returned KSHV LANA nucl -0.94 and BasE inh 0.4.
`O=C(O)COc1c(I)cc(Cl)c2cccnc12` gave BasE inh -0.4.
For CC(C(=O)c1ccccc1)C1(O)C(=O)Nc2ccccc21 (stereo not given) the results were KSHV LANA nucl -0.859 and BasE inh -0.8.
`Cc1nc2c(sc3nc4c(cc32)COC(C)(C)C4)c(=O)n1Cc1ccco1` gave KSHV LANA nucl -0.746 and BasE inh 1.9.
For CN(CC(=O)Nc1ccccc1Sc1ccccc1)C1CCS(=O)(=O)C1 (stereo not given) the results were BasE inh 1.5.
Screening CC(=O)Nc1ccc(C(=O)OCC(=O)N2CCCC2=O)cc1 returned BasE inh -1.6.
Screening O=C(Nc1ccc2nc3n(c(=O)c2c1)CCCCC3)c1ccccc1Cl returned KSHV LANA nucl 0.0425 and BasE inh -8.1.
CCOC(=O)c1c(C)oc2nc(CSc3nnc(-c4ccccc4)n3-c3ccc(Cl)cc3)nc(N)c12 was read as BasE inh -0.9.
For Cc1cc(=O)oc2cc(OCC(=O)Oc3ccc4c(c3)OCO4)ccc12 the results were BasE inh 0.0.
For O=C(COCc1cc(-c2ccco2)on1)N1CCCc2ccccc21 the results were KSHV LANA nucl 0.289 and BasE inh -1.9.
COc1ccc(N2C(=O)CSC23CCC(C)CC3)cc1 (stereo not given) was read as KSHV LANA nucl 1.4 and BasE inh -4.6.
Screening O=C(CN1CC(=O)Nc2ccccc21)Nc1ccc2c(c1)OCCCO2 returned BasE inh -3.1.
Screening CCCCCC(O)CCCC(=O)O (stereo not given) returned KSHV LANA nucl -0.642 and BasE inh -3.8.
Screening CC(C)n1ncc2c(C(=O)NC3=NCCS3)cc(-c3ccccc3)nc21 returned BasE inh 2.0.
CCn1cc(C(=O)NN)c(=O)c2cc(F)c(N3CCCC3)cc21 was read as BasE inh 3.5.
`COc1ccc2nc3oc(C(=O)NCCCN4CCc5ccccc5C4)cc3cc2c1` gave KSHV LANA nucl -0.137 and BasE inh -10.9.

Screening data from PubChem BioAssay.

These rows are one share of the data; rates above refer to the full screens.
